High-throughput results from PubChem.
Phagocyt inh: blocks phagocytosis by macrophages | J774A.1 macrophage IgG-bead phagocytosis, imaging | inhibition, % at 5 µM | actives 0.07% (n = 110,000) | AID 1029;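 active means inhibition above the mean of the plate negative controls plus 5 SD, cut at about 13% in these data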;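 further: phagocytic index as fraction of beads internalized from green versus red external bead signal; plate controls were DMSO negative control for no effect and cytochalasin-D positive control for full effect; some results beyond the cut were filed as inactive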
Yeast growth inh: reduces growth of yeast BB579 in restrictive medium. S. cerevisiae BB579 growth, OD615, 48 h. inhibition, % at 10 µM. actives 0.51% (n = 140,000). AID 804;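 active means inhibition above a set limit, 3 SD over the mean compound inhibition, cut at about 44% in these data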; further: inactives centre near -24
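System: Saccharomyces cerevisiae DeaD strain BB579, replicative lifespan model yeast | Buffer or medium: Restrictive glucose-based CSMM-D medium | Times: 4 h preincubation and 48 h exposure at 30 °C | Detection: OD615 turbidity measurement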
Yeast life ext: yeast lifespan extension | actives 0.68% (n = 130,000) | S. cerevisiae growth with nicotinamide, OD615; deaD strain in restrictive glucose medium | inhibition of the nicotinamide effect, % at 10 µM;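 active means inhibition above a set limit, placed 3 SD over the median of all compounds, cut at about 26% in these data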;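 further: 0% = nicotinamide-treated wells and 100% = cells grown without nicotinamide; some compounds called inactive have numbers as strong as hits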
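System: Modified budding yeast, DeaD strain | Buffer or medium: Restrictive glucose medium | Also added: 1.5 mM nicotinamide | Doses: 10 µM single point, 0.25% DMSO | Schedule: 48 h compound exposure at 30 °C, humidified | Detection: Absorbance at 615 nm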
Measles CPE: protection of cells from measles virus; Measles virus-infected cells, CPE protection, absorbance; protection (pct of control), % at 4 µM; actives 1.5% (n = 140,000); in the data active means protection mostly above about 24%, no sharp cut-off; inactive means mostly below about 26%; further: some compounds called inactive have numbers as strong as hits
NPY Y2 blocker: NPY-Y2 (human) receptor antagonism; NPY-Y2 expressing cells, antagonist mode; inhibition, % at 2.7 µM; actives 0.99% (n = 140,000); in the data active means inhibition above about 17%;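 further: 0% = vehicle with agonist challenge and 100% = reference antagonist with challenge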
Target sequence (P49146 whole entry, looked up): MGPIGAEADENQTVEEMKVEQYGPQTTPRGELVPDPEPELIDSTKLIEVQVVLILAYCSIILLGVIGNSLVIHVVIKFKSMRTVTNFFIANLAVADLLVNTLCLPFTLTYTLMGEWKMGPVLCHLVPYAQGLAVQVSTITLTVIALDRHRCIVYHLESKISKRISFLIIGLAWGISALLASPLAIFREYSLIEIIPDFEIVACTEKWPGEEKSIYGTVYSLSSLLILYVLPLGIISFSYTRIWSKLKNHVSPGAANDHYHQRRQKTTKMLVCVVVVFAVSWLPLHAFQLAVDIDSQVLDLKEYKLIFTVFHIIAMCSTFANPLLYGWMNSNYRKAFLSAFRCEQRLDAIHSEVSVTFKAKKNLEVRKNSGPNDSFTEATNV
GALR2 blocker: GALR2 (human) receptor antagonism. O43603. GALR2-expressing cells, antagonist mode. inhibition, % at 4 µM. actives 0.39% (n = 140,000); in the data active means inhibition above about 27%;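 further: cells stimulated with galanin 1-16 at roughly its EC80; 0% = agonist challenge control and 100% = basal control without agonist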
Target sequence (O43603 whole entry, looked up): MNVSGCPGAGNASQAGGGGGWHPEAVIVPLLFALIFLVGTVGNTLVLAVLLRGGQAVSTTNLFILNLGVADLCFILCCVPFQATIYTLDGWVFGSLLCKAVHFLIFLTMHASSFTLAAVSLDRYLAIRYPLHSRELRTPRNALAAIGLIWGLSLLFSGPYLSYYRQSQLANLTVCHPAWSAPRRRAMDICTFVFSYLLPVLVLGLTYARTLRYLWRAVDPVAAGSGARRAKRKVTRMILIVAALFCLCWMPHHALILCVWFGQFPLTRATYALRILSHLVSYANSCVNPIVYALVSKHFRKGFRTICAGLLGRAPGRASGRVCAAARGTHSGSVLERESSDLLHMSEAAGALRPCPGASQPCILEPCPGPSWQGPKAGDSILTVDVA
MRP1 act: activates MRP-1; H69AR cells + doxorubicin, viability rescue, CellTiter-Glo; viability increase, % at 10 µM; actives 0.61% (n = 140,000); AID 799;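 active means viability gain under doxorubicin at or above a set limit, the compound median plus 3 SD, cut at about 4.7% in these data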;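 further: MRP-1 overexpressing cells given doxorubicin 25 µM after compound pretreatment; 18-22 h compound pretreatment then 72 h with doxorubicin before readout; 0% = doxorubicin-only wells and 100% = vehicle-treated cells without doxorubicin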
* marks the source's active call; other numbers are inactive results; & = joins results of further samples. These rows are one share of the data, so the mix of outcomes need not match the whole.

Screening O=C(NC(CO)Cc1ccc([N+](=O)[O-])cc1)C(Cl)Cl (stereo unspecified) returned Phagocyt inh -6, Yeast growth inh -21, Yeast life ext -2, Measles CPE 17, NPY Y2 blocker 1, GALR2 blocker 8 and MRP1 act -2.7.
`O=C(O)c1ccc(CSc2nnnn2C2CCCCC2)cc1` gave Phagocyt inh 0, Yeast growth inh -3, Yeast life ext 0, Measles CPE 30*, NPY Y2 blocker 2, GALR2 blocker 8 and MRP1 act -1.4.
For Cc1cccc2cc(C(c3nnnn3Cc3ccccc3)N3CCN(C)CC3)c(=O)[nH]c12 (stereo unspecified) the results were Phagocyt inh 0, Yeast growth inh -22, Measles CPE 3, NPY Y2 blocker 1, GALR2 blocker 17 and MRP1 act 2.9.
`Nc1cccc(S(=O)(=O)c2cccc(N)c2)c1` gave Phagocyt inh 0, Yeast growth inh -29, Yeast life ext -19, Measles CPE 6, NPY Y2 blocker 2, GALR2 blocker 6 and MRP1 act -0.3.
CCOC(=O)Cc1[nH]nc2c1C(c1ccoc1)C(C#N)=C(N)O2 (stereo unspecified) was read as Phagocyt inh 3, Yeast growth inh -31, Yeast life ext 13, Measles CPE 6, NPY Y2 blocker 2, GALR2 blocker -7 and MRP1 act -2.2.
For O=C(O)C1CCCCC1C(=O)NCCc1ccncc1 (stereo unspecified) the results were Phagocyt inh -3, Yeast growth inh -13, Yeast life ext -7, Measles CPE 31, NPY Y2 blocker 2, GALR2 blocker 13 and MRP1 act -1.5.
`O=C(O)c1ccc(N/N=C/c2ccc(F)c(F)c2)cc1` gave Phagocyt inh 4, Yeast growth inh -6, Yeast life ext -11, Measles CPE 22, NPY Y2 blocker 1, GALR2 blocker -5 and MRP1 act 7.3*.
Screening CCCCN(CCCC)c1ccc(C(=O)c2ccccc2C(=O)O)c(O)c1 returned Yeast growth inh -41, Yeast life ext 34*, Measles CPE 22, NPY Y2 blocker 6, GALR2 blocker 4 and MRP1 act -3.4.
For CN(C)C(=O)CSc1nnc(Cc2ccc([N+](=O)[O-])cc2)o1 the results were Yeast growth inh -23, Yeast life ext -17, Measles CPE 6, NPY Y2 blocker 1, GALR2 blocker 2 and MRP1 act -2.2.
For O=C1C=C(O)CC(c2ccco2)C1 (stereo unspecified) the results were Yeast growth inh -50, Yeast life ext 2, Measles CPE 11, NPY Y2 blocker 2, GALR2 blocker 2 and MRP1 act -2.2.
Screening NCCCN1CCOCC1 returned Phagocyt inh 0, Yeast growth inh -24, Yeast life ext -5, Measles CPE 5, NPY Y2 blocker 3, GALR2 blocker -21 and MRP1 act 0.1.
O=C1CC(=O)CC(c2ccco2)C1 was read as Phagocyt inh -1, Yeast growth inh -2, Yeast life ext 4, Measles CPE 15, NPY Y2 blocker 1, GALR2 blocker 12 and MRP1 act -2.2.
For O=c1ccnc(Sc2ncccc2[N+](=O)[O-])[nH]1 the results were Yeast growth inh -28, Measles CPE 8, NPY Y2 blocker 2, GALR2 blocker 6 and MRP1 act -3.5.
`O=c1c2ccccc2[nH]c2ccccc12` gave Yeast growth inh 3, Yeast life ext -7, Measles CPE 25, NPY Y2 blocker 2, GALR2 blocker 8 and MRP1 act -1.3.
NC(=O)c1cc(S(=O)(=O)Nc2cccc(F)c2)co1 was read as Phagocyt inh 0, Yeast growth inh -4, Yeast life ext -12, Measles CPE 8, NPY Y2 blocker 2, GALR2 blocker 0 and MRP1 act -1.3.
CCOC(=O)c1cccc(NC(=O)C2CCC(CNc3c(N4CCOCC4)c(=O)c3=O)CC2)c1 (stereo unspecified) was read as Phagocyt inh 1, Yeast growth inh -20, Yeast life ext -6, Measles CPE 24, NPY Y2 blocker -2, GALR2 blocker 17 and MRP1 act -1.1.
For NCCCCCc1nnc(SCc2ccc(Cl)cc2Cl)o1 the results were Phagocyt inh 2, Yeast growth inh 2, Yeast life ext -25, Measles CPE 7, NPY Y2 blocker 6, GALR2 blocker 9 and MRP1 act -4.2.
`COCCN1C(=O)C(=O)/C(=C(/O)c2cccc(OC)c2)C1c1ccncc1` (stereo unspecified) gave Phagocyt inh 1, Yeast growth inh -9, Yeast life ext 1, Measles CPE 4, NPY Y2 blocker 3, GALR2 blocker 0 and MRP1 act -1.6.
For COC(=O)c1ccc(NC(=O)c2ccccc2N(C)S(=O)(=O)c2ccccc2)cc1 the results were Phagocyt inh 0, Yeast growth inh -42, Yeast life ext -3, Measles CPE 2, NPY Y2 blocker 4, GALR2 blocker 3 and MRP1 act 1.2.
CC(C)(C)c1nnc(N/N=C/c2cc(Br)ccc2O)n(N)c1=O was read as Phagocyt inh -11, Yeast growth inh 53*, Yeast life ext -1, Measles CPE 1, NPY Y2 blocker 0, GALR2 blocker 20 and MRP1 act 3.0.
For N#Cc1nc(Cc2cccc3ccccc23)oc1NCCCN1CCOCC1 the results were Phagocyt inh -1, Yeast growth inh -11, Yeast life ext -4, Measles CPE 13, NPY Y2 blocker 3, GALR2 blocker 9 and MRP1 act -5.2.
Screening Cc1ccc(N(C(=O)c2sc(C)nc2C)C(C(=O)NCc2ccco2)c2ccccc2)cc1 (stereo unspecified) returned Phagocyt inh 0, Yeast growth inh -66, Yeast life ext -12, Measles CPE 7, NPY Y2 blocker 8, GALR2 blocker -4 and MRP1 act -0.7.
O=C(CSc1nc2c(c(=O)n1-c1ccc(F)cc1)SCC2)NCc1ccco1 was read as Phagocyt inh -2, Yeast growth inh -5, Yeast life ext -4, Measles CPE 28, NPY Y2 blocker 13, GALR2 blocker -6 and MRP1 act -4.0.
COc1ccc(C(=O)c2ccc(OC)cc2O)c(O)c1 was read as Phagocyt inh -1, Yeast growth inh -30, Yeast life ext -7, Measles CPE 26, NPY Y2 blocker 2, GALR2 blocker -2 and MRP1 act -2.1.

Sorted by SMILES length (lowest first): part of the list above.
COc1ccc(C(=O)c2ccc(OC)cc2O)c(O)c1 was read as Phagocyt inh -1, Yeast growth inh -30, Yeast life ext -7, Measles CPE 26, NPY Y2 blocker 2, GALR2 blocker -2 and MRP1 act -2.1.
For O=c1ccnc(Sc2ncccc2[N+](=O)[O-])[nH]1 the results were Yeast growth inh -28, Measles CPE 8, NPY Y2 blocker 2, GALR2 blocker 6 and MRP1 act -3.5.
CC(C)(C)c1nnc(N/N=C/c2cc(Br)ccc2O)n(N)c1=O was read as Phagocyt inh -11, Yeast growth inh 53*, Yeast life ext -1, Measles CPE 1, NPY Y2 blocker 0, GALR2 blocker 20 and MRP1 act 3.0.
`COCCN1C(=O)C(=O)/C(=C(/O)c2cccc(OC)c2)C1c1ccncc1` (stereo unspecified) gave Phagocyt inh 1, Yeast growth inh -9, Yeast life ext 1, Measles CPE 4, NPY Y2 blocker 3, GALR2 blocker 0 and MRP1 act -1.6.
For COC(=O)c1ccc(NC(=O)c2ccccc2N(C)S(=O)(=O)c2ccccc2)cc1 the results were Phagocyt inh 0, Yeast growth inh -42, Yeast life ext -3, Measles CPE 2, NPY Y2 blocker 4, GALR2 blocker 3 and MRP1 act 1.2.
Screening Cc1ccc(N(C(=O)c2sc(C)nc2C)C(C(=O)NCc2ccco2)c2ccccc2)cc1 (stereo unspecified) returned Phagocyt inh 0, Yeast growth inh -66, Yeast life ext -12, Measles CPE 7, NPY Y2 blocker 8, GALR2 blocker -4 and MRP1 act -0.7.

(further entries)
Screening O=C(c1cccs1)N1CCN(S(=O)(=O)c2ccccc2)CC1 returned Phagocyt inh -2, Yeast growth inh -9, Yeast life ext -3, Measles CPE 23, NPY Y2 blocker 3, GALR2 blocker -2 and MRP1 act 0.3.
Screening O=C1NC(=O)C(c2ccccc2)(c2ccccc2)N1 returned Phagocyt inh 0, Yeast growth inh -38&-33&-24, Yeast life ext 6&-4&1, Measles CPE 1&32&10, NPY Y2 blocker 1&1&2, GALR2 blocker 17&-13&4 and MRP1 act -0.5&-3.1&-1.6.
`Cc1ccc(NC(=O)c2cc(NC(=O)CCCC(=O)O)ccc2Cl)cc1Cl` gave Yeast growth inh 5, Yeast life ext -9, Measles CPE 3, NPY Y2 blocker -2, GALR2 blocker 7 and MRP1 act -0.9.
For Cc1cn([C@H]2C=C[C@@H](CO)O2)c(=O)[nH]c1=O the results were Yeast growth inh -17, Yeast life ext 5, Measles CPE 21, NPY Y2 blocker 1, GALR2 blocker -1 and MRP1 act 0.5.
For Cc1ccc(SCc2cn3c(C)csc3n2)cc1 the results were Phagocyt inh -1, Yeast growth inh -23, Yeast life ext -9, Measles CPE 7, NPY Y2 blocker 0, GALR2 blocker -4 and MRP1 act 0.8.
O=C(NC1CCCC1)c1ccc(Br)s1 was read as Phagocyt inh 2, Yeast growth inh -11, Yeast life ext -21, Measles CPE 5, NPY Y2 blocker 2, GALR2 blocker 7 and MRP1 act 0.5.
CC(=O)N[C@@H](CS)C(=O)O was read as Yeast growth inh 10, Yeast life ext 1, Measles CPE 5, NPY Y2 blocker 0, GALR2 blocker 0 and MRP1 act -0.7.
